Screening data (PubChem BioAssay)
StopGo reporter: FMDV 2A StopGo reporter, luciferase signal; Potency, µM (titrated, usually from 57.9 µM), inactives show top-dose signal change, negative = less light; AID 1159524; human cells with a luciferase reporter of 2A StopGo recoding; control for the full effect not named in the record; actives 1.2% (n = 410,000); active = well fitted falling curve with a large enough effect; inconclusive = small, poorly fitted or top-dose-only effect; inactive = no such curve, though single readings can be large or run the other way; tested in HEK293T cells; also: % is scaled to controls: 0 for no effect and ±100 for the full control effect; nearly all actives have a fitted effect of over 45% in size; luciferase light after 4 h
Lassa entry inh: Lassa virus entry inhibition; Lassa virus pseudotype entry inhibition, cell reporter; control for the full effect not named in the record; Potency, µM (highest dose often 37.9 µM), for the others: at the top dose activity change, negative = inhibition, actives largely listed as inhibitors; actives 1.2% (n = 300,000); active means well fitted inhibition curve with a large enough effect; inconclusive means small, poorly fitted or top-dose-only effect, or effect the other way; inactive means flat fitted curve, though single readings scatter; tested in HEK293 cells; also: % is scaled to controls: 0 for no effect and ±100 for the full control effect; nearly all actives have a fitted effect of over 50% in size; luciferase read-out
Cruzain inh Det: inhibitors of Trypanosoma cruzi cruzain with detergent. P25779. purified cruzain, Z-FR-AMC fluorescence, 0.01% Triton. AID 1478. actives 0.43% (n = 200,000). Potency, µM, inactives show max response, negative = inhibition, actives largely listed as inhibitors;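 also: plate controls were neutral wells for no effect and buffer without enzyme for full effect; nearly all actives have a fitted effect of over 40% in size; top concentration of the series not given in the record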
Target sequence (P25779 123-467 limits assumed): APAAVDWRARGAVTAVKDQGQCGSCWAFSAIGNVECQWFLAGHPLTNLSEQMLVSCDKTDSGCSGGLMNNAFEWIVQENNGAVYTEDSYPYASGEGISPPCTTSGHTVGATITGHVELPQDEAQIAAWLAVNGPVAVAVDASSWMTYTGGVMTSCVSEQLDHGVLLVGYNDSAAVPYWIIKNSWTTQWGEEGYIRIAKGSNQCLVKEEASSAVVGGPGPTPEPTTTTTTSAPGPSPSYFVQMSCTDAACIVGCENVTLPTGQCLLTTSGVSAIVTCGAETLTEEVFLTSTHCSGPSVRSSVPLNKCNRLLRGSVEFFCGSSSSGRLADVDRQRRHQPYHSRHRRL
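Enzyme 1.5 nM, Z-FR-AMC 2 uM, NaOAc 100 mM pH 5.5, DTT 5 mM, Triton X-100 0.01%; 15 min RT compound preincubation; kinetic ex360/em450, 60 s delta.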
NS1 inh: influenza NS1 inhibition; S. cerevisiae slowed by influenza A NS1, growth recovery by OD600; Potency, µM (doses to about 46.1 µM), for the others: at the highest dose activity, positive = more growth; actives 0.4% (n = 270,000); AID 2326; active means well fitted rising curve with a large enough effect; inconclusive means small, poorly fitted or top-dose-only effect; inactive means no such curve, though single readings can be large or run the other way; also: nearly all actives have a fitted effect of over 50% in size
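Compounds were scored for reversing the slow growth caused by influenza A NS1 in S. cerevisiae, measured by optical density at 600 nm. Assay medium contained 2% galactose at pH 6.0; NS1-free yeast of the same strain were the positive control.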
Cruzain noTriton: cruzain (T. cruzi) inhibition without detergent. Potency, µM, for the others: max response, negative = inhibition, hits mostly inhibitors. actives 2.3% (n = 200,000). purified cruzain, Z-FR-AMC fluorescence, no detergent;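 also: plate controls were enzyme without inhibitor for no effect and buffer without enzyme for full effect; nearly all actives have a fitted effect of over 40% in size; top concentration of the series not given in the record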
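Detergent-free condition (0.00005% Triton X-100) in acetate buffer pH 5.5 with DTT. 1.5 nM enzyme and compound were pre-mixed 15 min, then 2 uM Z-FR-AMC substrate added; reaction progress from fluorescence change between first and third reads (60 s).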
Marburg entry inh: Marburg virus entry inhibition; Marburg virus pseudotyped entry inhibition, cell reporter; control for the full effect not named in the record; about a third of the inactives were read at about 46 µM; Potency, µM (series often up to 37.8 µM), for the others: at the top dose activity change, negative = inhibition, usual class: inhibitors; actives 1.8% (n = 300,000); AID 540276; active = well fitted inhibition curve with a large enough effect; inconclusive = small, poorly fitted or top-dose-only effect, or effect the other way; inactive = flat fitted curve, though single readings scatter; tested in HEK293 cells; about a fifth of its hits are not listed in these tables; also: % is scaled to controls: 0 for no effect and ±100 for the full control effect; luciferase read-out
SARS PLP yeast: blocks SARS-CoV papain-like protease in a yeast assay; S. cerevisiae expressing SARS-CoV PLpro, growth rescue; control for the full effect not named in the record; Potency, µM (titrated, usually from 32.9 µM), inactives show top-dose activity, positive = growth rescue; actives 0.19% (n = 330,000); active means well fitted rising curve with a large enough effect; inconclusive means small, poorly fitted or top-dose-only effect; inactive means no such curve, though single readings can be large or run the other way; also: 0% is about no effect; nearly all actives have a fitted effect of over 55% in size; growth read by luminescence after 48 h
RE007 growth inh: less growth of the S. pombe RE007 Vpr strain; S. pombe RE007 Vpr strain, BacTiter-Glo ATP luminescence, 24 h; control for the full effect not named in the record; Potency, µM (highest dose often 92.2 µM), inactives show at the highest dose activity change, negative = less growth; actives 0.21% (n = 360,000); active = well fitted falling curve with a large enough effect; inconclusive = small, poorly fitted or top-dose-only effect; inactive = no such curve, though single readings can be large or run the other way;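 also: % is scaled to controls: 0 for no effect and ±100 for the full control effect; nearly all actives have a fitted effect of over 50% in size; the assay follows cell death caused by Vpr and the record does not say whether a fall means rescue or toxicity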
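Fission yeast strain RE007, carrying one chromosomally integrated HIV-1 vpr copy, was seeded at OD 0.01 in PMG+AL medium with 23 nL pinned compound. After 24 h at 30 °C and 99% humidity, viability was read by BacTiter-Glo luminescence.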
* marks the source's active call; other numbers are inactive results; ? = inconclusive; · = not tested or not shown; & = joins results of further samples; [ ] = dose if it differs, or a comment. Unless noted, calls follow the shape of the dose curve; as a rule, active = well fitted curve in the direction sought with a large enough effect; inconclusive = small, poorly fitted or top-dose-only effect, or another doubt; inactive = no such curve, though single readings can be large; an effect the other way counts as inactive or inconclusive. Potency is read from the fitted curve at half-maximal effect.

SMILES | StopGo reporter | Lassa entry inh | Cruzain inh Det | NS1 inh | Cruzain noTriton | Marburg entry inh | SARS PLP yeast | RE007 growth inh
COc1ccccc1NC(=S)N1CCC(c2nc3ccccc3o2)CC1 | -16% | · | 3.2% | -2% | 2% | 0% | 15% | 13%
O=C(N/N=C/C=C\c1cccc([N+](=O)[O-])c1)c1cccnc1 | 2% | -27% | · | 4% | · | -5% | -3% | -7%
COCC(C)NS(=O)(=O)c1ccc(C)cc1 (centres undefined) | 11% | 12% | 5.3% | 7% | -13% | 18% | 13% | 24%
O=C(CCC(=O)Nc1ccccc1Cl)NNC(=O)C1CCCCC1 | 5% | 1% | · | · | · | ? | 7% | 6%
CCN(CC)CCOC(=O)c1c(C)oc2ccc(OC)cc12 | · | 5% | 2.4% | 5% | -6% | ? | 0% | -17%
O=C(N/N=C/C=C/c1ccccc1)c1cc2c(ccc3ccccc32)o1 | ? | 7.9µM* | ? | -15% | 10µM* | 4.5µM* | 1% | -3%
CC(=O)Nc1ccc(S(=O)(=O)N2CCCc3ccccc32)cc1 | -12% | ? | -4.7% | -12% | -2% | ? | 2% | -6%
Cc1ccccc1-c1nc2ccccc2c(=O)n1C | -10% | -5% | · | 10% | · | 5% | 1% | 2%
COc1cccc(-c2nn(C)c3sc(C(=O)NCCc4ccc(Cl)cc4)cc23)c1 | -9% | -21%[46.1 µM] | -0.1% | · | ? | -33%[46.1 µM] | · | ·
Cc1cc(C)n(C(=O)c2cc3sccc3[nH]2)n1 | · | 0% | -10.0% | -11% | -7% | 9% | -11% | -10%
Cc1cccc(NC(=O)Cn2cnc(S(=O)(=O)N3CCCC3)c2)c1C | -5%&-4% | 8%&-1%[46.1 µM] | -1.4% | 6% | -10% | -2%&-2%[46.1 µM] | -3% | 9%
COc1ccc(CC2C(=O)N(c3ccccc3)C(=O)N(c3ccccc3)C2=O)c(OC)c1 | 32%[activator] | -1% | -2.1% | 18% | -4% | ? | 0% | 8%
CC(C)c1cc(CN2CCN(C3CCCC3)C(CCO)C2)[nH]n1 (centres undefined) | -4% | 15% | · | 11% | · | -3%[46.1 µM] | 0% | 3%
Cc1ccc(C2C(C(=O)c3sc(C)nc3C)=C(O)C(=O)N2CCN(C)C)o1 (centres undefined) | 9% | -16% | -3.9% | 2% | -19% | 12% | 2% | 11%
O=[N+]([O-])c1ccc(CSc2ccccn2)cc1 | 27% | 27% | · | 2% | · | 21% | 1% | 3%
CN1CC(=O)N2Cc3[nH]c4ccccc4c3C[C@H]2C1=O | 9% | ? | · | 0% | · | 14% | 9% | -15%
Cc1ccc(S(N)(=O)=O)c(C)c1N1CCCC1=O | -2% | · | · | 6% | · | · | 0% | 4%
C=C(C)Cn1cnc2c(oc3nc4c(cc32)CCCC4)c1=O | 69%[activator] | · | · | -7% | · | · | -1% | -2%
NS(=O)(=O)c1ccc(CCNC(=O)Cc2cccs2)cc1 | 5% | · | · | 28% | · | · | 8% | 2%
NS(=O)(=O)c1ccc(CNC(=O)c2ccccc2SCC(=O)N2CCCC2)cc1 | -2% | 15% | · | · | · | -13% | 1% | 5%
COc1ccc(CN2C(=O)N(c3ccc(F)cc3)C(=O)C2CC(=O)Nc2cc(OC)cc(OC)c2)cc1 (centres undefined) | -9% | -25%[46.1 µM] | -4.0% | · | 5% | · | · | ·
O=C(Cc1ccccc1)Nc1nonc1NC(=O)c1ccccc1 | 17% | ? | 3.6% | 3% | -3% | 13µM* | 1% | 10%
COc1ccccc1OCC(=O)N1CCCC(N2CCN(c3ccc(F)cc3)CC2)C1 (centres undefined) | -11% | 17% | · | -3% | · | 4% | 17% | -8%
COc1ccccc1NC(=O)N1CCCC1C(=O)Nc1ccc2c(c1)OCCO2 (centres undefined) | 7% | ? | · | 3% | · | 21% | 1% | 3%
COc1ccc(S(=O)(=O)N2CCC(Cc3ccccc3)CC2)cc1NC(C)=O | -13% | · | · | 9% | · | · | 0% | -2%

(list continues)
SMILES | StopGo reporter | Lassa entry inh | Cruzain inh Det | NS1 inh | Cruzain noTriton | Marburg entry inh | SARS PLP yeast | RE007 growth inh
O=C(CC1C(=O)NCCN1Cc1ccc(-c2ccccc2)cc1)NCCc1ccccn1 (centres undefined) | 3% | ? | · | -4% | · | 19%[46.1 µM] | 1% | -9%
CCCn1c(SCc2ccon2)nc2ccccc2c1=O | -23% | -15% | -6.4% | -75% | -2% | -1% | -1% | -14%
CCCCCSc1nc2sc3c(c2c(=O)n1-c1ccccc1)CCN(C(C)=O)C3 | -23% | ? | -27% | · | ? | ? | · | ·
COC(=O)CCN(C(=O)c1ccc(N2CCCC2)c([N+](=O)[O-])c1)c1ccccn1 | -7% | -11%[46.1 µM] | · | · | · | 7%[46.1 µM] | 0% | -14%
CC(=O)c1ccc2c3c(cccc13)CC2 | -5% | -2% | -2.4% | 11% | 3% | 17%[46.1 µM] | -6% | -19%
Cc1ccnc(N2CCC(C(=O)NNC(=O)COc3cccc4ccccc34)CC2)n1 | -15% | 1% | -5.9% | 5% | ? | 2% | 21% | -27%
Cc1cc2c(cc1S(=O)(=O)C(C)CC(=O)NCc1ccco1)OCC(=O)N2 (centres undefined) | -8% | 15%[46.1 µM] | · | -1% | · | 13%[46.1 µM] | 2% | 11%
CCOc1ccc(Nc2nc3c(C)cccc3cc2C#N)cc1 | -8% | ? | · | -1% | · | 2% | 2% | -2%
CCOC(=O)c1nnn(-c2nn3nnnc3c3ccccc23)c1C | -21% | 1% | 0.9% | -4% | -10% | 17% | 0% | 7%
COCCn1c(SCC(=O)Nc2ccc(C)cc2)nc2c(oc3ccccc32)c1=O | -3% | 0% | 0.8% | -5% | -22% | 3% | -4% | 2%
COc1ccc(NC(=O)c2oc3ccc(S(=O)(=O)N4CCOCC4)cc3c2C)c(OC)c1 | 0%&-27% | -1% | -0.9% | · | -3% | -2%[46.1 µM] | · | 5%
COC(=O)c1cc(Cl)c(NC(=O)/C=C/c2ccc(Cl)cc2Cl)cc1OC | -19%&-24% | ? | -1.2%&2.6% | ? | -8%&-6% | ? | 10% | -5%
Cc1onc(-c2ccccc2)c1CNC(=O)Nc1cccc(Cl)c1 | 11% | ? | · | -9% | · | ? | 0% | 8%
CCOC(=O)c1ccc(NC(=O)CC2C(=O)OCCN2CC)cc1 (centres undefined) | -10%&-7% | 3%[46.1 µM] | · | · | · | ? | -5% | 5µM*
CC(=O)Nc1ccc(S(=O)(=O)NCC2CCC(C(=O)NCCCOC(C)C)CC2)cc1 (centres undefined) | -30%&-10% | 25%[46.1 µM] | -0.3% | 5% | 9% | · | 1% | -12%
CC(C)NC(=O)C1(N2C(=O)c3ccccc3C2=O)CCCC1 | 4% | 9% | · | · | · | 0% | · | 8%
O=[N+]([O-])c1ccc2nc(-c3cccnc3)[nH]c2c1 | 29% | 29% | · | 3% | · | 19% | 2% | -29%
COc1ccc(C2(c3ccc(OC)cc3)NC(=O)N(CC(=O)Nc3ccc(OC)c(OC)c3)C2=O)cc1 | 0% | ? | · | 0% | · | ? | 1% | -13%
Cc1cc(C)cc(C(=O)N2CC(C)OC(C)C2)c1 (centres undefined) | -21% | -29% | 5.2% | 7% | 0% | -2% | 9% | -9%[3.69 µM]
O=S(=O)(NCc1ccc2c(c1)OCO2)c1ccccc1F | -14% | 0%[46.1 µM] | · | 4% | · | 38%[46.1 µM] | 13% | 13%
O=C(CSc1nnc(CNC(=O)c2ccccc2)o1)NCc1ccccc1 | -17% | 16% | · | 10% | · | 15% | -5% | -9%
CN(C)S(=O)(=O)c1cccc(NC(=O)CCNC(=O)c2ccccc2Cl)c1 | -24% | 21% | -1.9% | ? | 19% | 4% | -22% | -1%
O=c1[nH]c(C2CCN(S(=O)(=O)c3ccc(S(=O)(=O)NC4CC4)cc3)CC2)nc2c1nnn2Cc1ccccc1 | -2% | ? | · | 12% | · | 13% | 2% | -1%
CN(CCNC(=O)C1(O)c2ccccc2NC(=O)N1c1ccccc1)Cc1ccccc1 (centres undefined) | -3% | 2% | 0.2% | 2% | -1% | 4% | 1% | 0%
Cc1cc(C(=O)NNC(=S)NC(C)c2ccccc2)cs1 (centres undefined) | -15% | ? | -0.2% | 10% | -3% | -2% | 6% | -2%

More results.
SMILES | StopGo reporter | Lassa entry inh | Cruzain inh Det | NS1 inh | Cruzain noTriton | Marburg entry inh | SARS PLP yeast | RE007 growth inh
CC(C)Cc1ccc(CN2CCCC(NC(=O)CCCN3CCCC3=O)C2)cc1 (centres undefined) | -28% | · | · | -2% | · | · | 2% | 1%
C/C(=N\NC(=O)c1nnn(-c2nonc2N)c1CSc1ccc(C)cc1)c1ccco1 | 16% | · | · | 3% | · | · | -1% | -4%
Cc1ccc(C(=O)C2CCN(S(=O)(=O)c3ccc(C(=O)O)cc3)CC2)cc1 | -9% | -12%[46.1 µM] | · | 0% | · | 3%[46.1 µM] | 0% | 3%
CN(C)c1ccc(-c2nc3ccccn3c2Nc2ccc3c(c2)OCCO3)cc1 | 17% | 6%[46.1 µM] | -4.8% | · | -10% | ? | · | ·
COC(=O)c1c(-c2ccccc2)csc1NC(=O)c1ccco1 | · | ? | 1.8% | 0% | 0% | ? | 10% | -3%
c1coc(CNc2ncnc3c2oc2ccccc23)c1 | · | -25% | -5.5% | -62% | 3% | -21% | -12% | 11%
Cc1cc(-c2csc(NCc3ccccc3)n2)c(C)n1C | -3% | 2%[46.1 µM] | · | · | · | 1%[46.1 µM] | -1% | 1%
Cc1cccc(Nc2nc(-c3ccccc3)nc3ccccc23)c1 | -29% | -8%[46.1 µM] | -21% | · | 9% | · | · | ·
COc1ccc(Cl)cc1NC(=O)CSc1cn(CC(=O)N2CCCCC2)c2ccccc12 | ? | -22%[46.1 µM] | -4.6% | · | -10% | · | · | ·
Cc1cccc(C(C)C)c1NC(=O)c1ccc2c(c1)CCN2S(C)(=O)=O | -30% | 18%[46.1 µM] | -0.7% | · | 1% | 11%[46.1 µM] | · | ·
Cn1cc(S(=O)(=O)CC(=O)Nc2ccc3c(c2)OCCO3)c2ccccc21 | 34%[activator] | 15% | 8.1% | -2% | 1% | 1% | 6% | -18%
COC(=O)c1ccc(O)c(Sc2cc(C(=O)OC)ccc2O)c1 | -13% | 3% | -20% | -26% | -24% | 9% | · | 5%
